RE007 growth inh: less growth of the S. pombe RE007 Vpr strain | S. pombe RE007 Vpr strain, BacTiter-Glo ATP luminescence, 24 h; control for the full effect not named in the record | Potency, µM (doses to about 92.2 µM), for the others: top-dose activity change, negative = less growth | hit rate 0.21% among 360,000 | AID 651644; active = well fitted falling curve with a large enough effect; inconclusive = small, poorly fitted or top-dose-only effect; inactive = no such curve, though single readings can be large or run the other way;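 further: on the % scale 0 is the no-effect control and ±100 the full control effect; nearly all actives have a fitted effect of over 50% in size; the assay follows cell death caused by Vpr and the record does not say whether a fall means rescue or toxicity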
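Fission yeast strain RE007, carrying one chromosomally integrated HIV-1 vpr copy, was seeded at OD 0.01 in PMG+AL medium with 23 nL pinned compound. After 24 h at 30 °C and 99% humidity, viability was read by BacTiter-Glo luminescence.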
LASV entry inh: inhibitors of Lassa virus binding or cell entry. hit rate 1.2% among 300,000. Potency, µM (series often up to 37.9 µM), for inactives: top-dose activity change, negative = inhibition, hits mostly inhibitors. Lassa virus pseudotype entry inhibition, cell reporter; control for the full effect not named in the record; active means well fitted inhibition curve with a large enough effect; inconclusive means small, poorly fitted or top-dose-only effect, or effect the other way; inactive means flat fitted curve, though single readings scatter; tested in HEK293 cells; further: on the % scale 0 is the no-effect control and ±100 the full control effect; nearly all actives have a fitted effect of over 50% in size; luciferase read-out
Marburg entry inh: Marburg virus entry inhibition; Potency, µM (highest dose often 37.8 µM), for the others: at the top dose activity change, negative = inhibition, actives largely listed as inhibitors; AID 540276; hit rate 1.8% among 300,000; Marburg virus pseudotyped entry inhibition, cell reporter; control for the full effect not named in the record; about a third of the inactives were read at about 46 µM; active = well fitted inhibition curve with a large enough effect; inconclusive = small, poorly fitted or top-dose-only effect, or effect the other way; inactive = flat fitted curve, though single readings scatter; tested in HEK293 cells; about a fifth of its hits are not listed in these tables; further: on the % scale 0 is the no-effect control and ±100 the full control effect; luciferase read-out
Cruzain Triton: cruzain (T. cruzi) inhibition with detergent. hit rate 0.43% among 200,000. P25779. purified cruzain, Z-FR-AMC fluorescence, 0.01% Triton. AID 1478. Potency, µM, inactives show max response, negative = inhibition, actives largely listed as inhibitors;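 further: plate controls were neutral wells for no effect and buffer without enzyme for full effect; nearly all actives have a fitted effect of over 40% in size; top concentration of the series not given in the record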
Target sequence (P25779 123-467 limits assumed): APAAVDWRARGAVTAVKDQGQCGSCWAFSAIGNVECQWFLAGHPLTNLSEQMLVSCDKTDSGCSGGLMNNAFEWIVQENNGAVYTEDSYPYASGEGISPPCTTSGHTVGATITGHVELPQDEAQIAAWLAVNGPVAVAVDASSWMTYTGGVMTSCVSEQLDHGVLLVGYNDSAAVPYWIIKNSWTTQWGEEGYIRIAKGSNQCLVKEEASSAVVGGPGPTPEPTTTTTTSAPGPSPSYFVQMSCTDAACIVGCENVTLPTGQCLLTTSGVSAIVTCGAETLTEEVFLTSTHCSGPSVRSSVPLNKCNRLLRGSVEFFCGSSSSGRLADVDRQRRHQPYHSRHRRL
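Detergent-containing run (0.01% Triton X-100) in acetate buffer pH 5.5 with 5 mM DTT: enzyme at 1.5 nM final, 15 min compound preincubation at room temperature, then 2 uM Z-FR-AMC substrate. Activity taken as 60 s fluorescence increase at 360/450 nm.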
NS1 function inh: blocks influenza NS1 protein function. S. cerevisiae slowed by influenza A NS1, growth recovery by OD600. Potency, µM (titrated, usually from 46.1 µM), for inactives: at the top dose activity, positive = more growth. hit rate 0.4% among 270,000; active means well fitted rising curve with a large enough effect; inconclusive means small, poorly fitted or top-dose-only effect; inactive means no such curve, though single readings can be large or run the other way; further: nearly all actives have a fitted effect of over 50% in size
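Recovery from NS1-induced slow growth read by OD600 in budding yeast switched to galactose assay medium (pH 6.0, -URA) at 1:100 dilution. Compound 23 nl per well; the matching strain lacking NS1 serves as control.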
Cruzain inh noDet: cruzain (T. cruzi) inhibition without detergent; purified cruzain, Z-FR-AMC fluorescence, no detergent; hit rate 2.3% among 200,000; AID 1476; Potency, µM, without a hit: max response, negative = inhibition, usual class: inhibitors;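 further: plate controls were enzyme without inhibitor for no effect and buffer without enzyme for full effect; nearly all actives have a fitted effect of over 40% in size; top concentration of the series not given in the record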
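Detergent-free condition (0.00005% Triton X-100) in acetate buffer pH 5.5 with DTT. 1.5 nM enzyme and compound were pre-mixed 15 min, then 2 uM Z-FR-AMC substrate added; reaction progress from fluorescence change between first and third reads (60 s).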
2A StopGo: FMDV 2A StopGo reporter, luciferase signal | Potency, µM (highest dose often 57.9 µM), without a hit: at the top dose signal change, negative = less light | human cells with a luciferase reporter of 2A StopGo recoding; control for the full effect not named in the record | hit rate 1.2% among 410,000; active = well fitted falling curve with a large enough effect; inconclusive = small, poorly fitted or top-dose-only effect; inactive = no such curve, though single readings can be large or run the other way; tested in HEK293T cells; further: on the % scale 0 is the no-effect control and ±100 the full control effect; nearly all actives have a fitted effect of over 45% in size; luciferase light after 4 h
SARS PLpro yeast: inhibitors of SARS-CoV papain-like protease in yeast. Potency, µM (doses to about 32.9 µM), for the others: top-dose activity, positive = growth rescue. S. cerevisiae expressing SARS-CoV PLpro, growth rescue; control for the full effect not named in the record. AID 485353. hit rate 0.19% among 330,000; active means well fitted rising curve with a large enough effect; inconclusive means small, poorly fitted or top-dose-only effect; inactive means no such curve, though single readings can be large or run the other way; further: 0% is about no effect; nearly all actives have a fitted effect of over 55% in size; growth read by luminescence after 48 h
Active calls of the source: *; ? = inconclusive; nt = not tested or not shown; & = joins results of further samples; [ ] = another dose, or the depositor's remark. Unless noted, the call rests on the fitted dose curve; in most records, active means well fitted curve in the direction sought with a large enough effect; inconclusive means small, poorly fitted or top-dose-only effect, or another doubt; inactive means no such curve, though single readings can be large; an effect the other way counts as inactive or inconclusive. Potency means the concentration at half of the fitted maximal effect.

SMILES	RE007 growth inh	LASV entry inh	Marburg entry inh	Cruzain Triton	NS1 function inh	Cruzain inh noDet	2A StopGo	SARS PLpro yeast
CCOC(=O)c1c(C)[nH]c(CCC(=O)NCCCN2CCN(c3ccccc3F)CC2)c1C	nt	11%[46.1 µM]	nt	4.0%	nt	12%	-19%	nt
CCOC(=O)C1CCCN(CCC(=O)Nc2cc(C)cc(C)c2)C1 (stereo unspecified)	-20%	3%	-24%[46.1 µM]	nt	nt	nt	-8%	-1%
Cc1cc(N2CCC(C)CC2)nc2ccc(NC(=O)/C=C/c3cccc(Cl)c3)cc12	nt	15%[46.1 µM]	29%[46.1 µM]	-2.6%	nt	2%	-24%	nt
COc1ccccc1C(OC(=O)c1ccco1)C(=O)NC(C)(C)C (stereo unspecified)	18%	17%	18%	-1.6%	-4%	-6%	-3%	14%
Cc1ccccc1CNC(=O)C(=O)NCC1OCCCN1S(=O)(=O)c1cccs1 (stereo unspecified)	5%	nt	nt	nt	2%	nt	-10%	-1%
CCN1CCN(CCOc2ccc(Cl)cc2)CC1	-7%	17%[46.1 µM]	3%[46.1 µM]	nt	0%	nt	-9%	1%
CCOc1ccccc1CNc1ccc(O)cc1	-11%	?	?	nt	13%	nt	12%	1%
CC(=O)c1ccc(N2CCN(C(=O)CS(=O)(=O)c3cccc4nsnc34)CC2)cc1	nt	-7%[46.1 µM]	nt	-2.4%	nt	-12%	-10%	nt
CC(=O)Nc1ccc(S(=O)(=O)N(C)CC(=O)OC(C)C(=O)N(C)C2CCCCC2)cc1 (stereo unspecified)	-10%	-14%	8%[46.1 µM]	nt	-2%	nt	4%	-4%
CCOC(=O)C1CCCN(c2nc3c(S(=O)(=O)c4ccc(Br)cc4)nnn3c3ccsc23)C1 (stereo unspecified)	nt	?	nt	0.0%	nt	-6%	-6%	nt
Cc1ccc(/C=N/NC(=O)Cn2nc(C)c(Br)c2C)o1	-8%[3.69 µM]	12%	17%	-1.4%	0%	-4%	-26%	8%
CN(C)c1ccc(CNC(=O)CCS(=O)(=O)c2ccc3c(c2)oc(=O)n3C)cc1	-7%	30%[46.1 µM]	nt	-1.7%	11%	8%	3%&0%	-6%
CCOc1ccc(N(CC(=O)Nc2cccc(OC)c2)S(=O)(=O)c2c(C)noc2C)cc1	6%	nt	3%	-2.3%	0%	19%	?	-6%
O=S(=O)(c1cccc(F)c1)N1CCN(c2ncnc3scc(-c4ccc(F)cc4)c23)CC1	-5%	?	?	nt	nt	nt	?	-1%
COc1ccc(-n2nc(C)c3onc(C)c3c2=O)cc1	12%	-3%	20%	nt	1%	nt	6%	0%
O=C(c1ccco1)N1CCN(c2nc(-c3ccc(F)cc3)cs2)CC1	?	-17%	-3%	-7.2%	5%	6%	-5%	-17%
COC(=O)c1ccc(OCc2cc(=O)n3ccsc3n2)cc1	33%	?	21%	-6.0%	-8%	1%	8%	3%
COc1ccc(N(C(=O)CNC(=O)c2ccco2)C(C(=O)NCC2CCCO2)c2ccccc2)cc1OC (stereo unspecified)	-1%	20%	14%[46.1 µM]	nt	0%	nt	3%	1%
O=C1CC(N2CCN(C/C=C/c3ccccc3)CC2)C(=O)N1Cc1cccs1 (stereo unspecified)	-11%	-1%	-4%	1.1%	-14%	-1%	?	-3%
Cc1ccc2nc3c(nc2c1C)CCCC3	-12%	4%	4%	nt	-4%	nt	22%	0%
CCN(C(=O)c1cc(Cl)ccc1OC)c1ccccc1	22%	26%	2%	3.8%	-3%	8%	-11%	2%
COC(=O)[C@H](CCSC)NC(=O)c1cc2c(cn1)[nH]c1ccccc12	9%	13%[46.1 µM]	?	nt	0%	nt	-10%	-1%
CCCCCOc1ccc(C(=O)N(Cc2ccccc2)C2CCS(=O)(=O)C2)cc1 (stereo unspecified)	nt	?	nt	-4.4%	nt	?	-12%	nt
COc1cccc(CNC(=O)COC(=O)c2cc(Br)c(Br)s2)c1	16%	10%	-6%	nt	nt	nt	-7%	-4%
COc1ccc(Oc2nnc(-c3ccccc3)cc2C#N)cc1	6%	29%	6%	-3.5%	-7%	1%	?	0%
Oc1oc(-c2ccccc2Br)nc1C=Nc1ccc(Br)cn1	2%	10%[46.1 µM]	7%[46.1 µM]	nt	nt	nt	13%	1%
O=C(Cc1ccc(S(=O)(=O)N2CCOCC2)s1)NCCOc1ccccc1F	-2%	1%	15%[46.1 µM]	nt	nt	nt	26%	-1%
O=C(c1ccccc1Oc1ccccc1)N1CCN(c2ccccc2)CC1	-5%	?	-14%	-8.8%	-58%	-5%	-5%	-13%
O=C(Cc1ccccc1[N+](=O)[O-])N1CCN(Cc2ccc3c(c2)OCO3)CC1	-29%	-22%[46.1 µM]	-2%[46.1 µM]	nt	nt	nt	-3%	0%
N/C(=N\OC(=O)CCC1CCCC1)c1ccc(Br)cc1	-6%	19%	8%	nt	-81%	nt	7%	-14%
O=C(CCS(=O)(=O)c1nc(-c2ccc3c(c2)OCO3)cc(C(F)(F)F)n1)Nc1ccc(F)c(Cl)c1	nt	-14%[46.1 µM]	-23%[46.1 µM]	-19%	nt	?	?	nt
CCOC(=O)c1cc(NC(=O)c2cnccn2)cc(C(=O)OCC)c1	-13%	24%[14.3 µM]	?	0.6%	?	?	9%	-4%
COc1cccc(NC(=O)COC(=O)COc2ccccc2[N+](=O)[O-])c1	nt	1%	30%	-6.6%	-36%	-4%	-16%	-2%
CSc1cccc(NC(=O)c2cc(S(=O)(=O)N3CCCC3)cn2C)c1	12%	nt	nt	nt	9%	nt	-18%	0%
COc1ccc(S(=O)(=O)N2CCN(c3cnccn3)CC2)cc1	10%	15%	-12%	nt	nt	nt	0%	-23%
Cc1ccccc1NC(=O)N1CCN(S(=O)(=O)c2ccccc2)CC1	15%	9%	-10%[46.1 µM]	nt	2%	nt	-10%	-1%
COc1ccc(-n2nc3cc(C)c(NC(=O)COc4cccc(C)c4)cc3n2)cc1	nt	14%[46.1 µM]	nt	-0.4%	nt	10%	16%	nt
COC(=O)COc1ccc(-c2nccc(-c3ccc(Br)cc3)n2)cc1	3%	15%[46.1 µM]	12%[46.1 µM]	nt	-2%	nt	-19%	1%
COc1ccc(NC(=O)CCS(=O)(=O)c2cc3c(cc2C)NC(=O)CO3)cc1	-6%	nt	nt	nt	15%	nt	-6%	2%
COC(=O)c1ccc(COc2ccc(-c3nnn(CC(=O)NC(C)(C)C)n3)cc2)cc1	nt	-12%	-11%	1.4%	15%	-12%	-5%	?
O=C(N/N=C(\CC(=O)c1cccs1)C(F)(F)F)c1ccncc1	18%	?	?	nt	5%	nt	-11%	1%
COc1ccc(/C=C/C(=O)NC(=S)Nc2ccc(S(N)(=O)=O)cc2)cc1	20%	?	-8%	nt	2%	nt	22%	0%
COc1ccc(C(=O)CN2C(=O)C(C)(C)Oc3ccc(C(=O)N4CCCCCC4)cc32)cc1	0%	?	-12%	2.7%	-1%	27%	-3%	-1%
CNC(=O)c1cc2c(cn1)[nH]c1ccccc12	-3%	?	?	-3.4%&-3.1%	-39%	-5%&-6%	?	nt
O=C(/C=C/c1ccco1)OCC(=O)N1CCCCC1	3%	1%[46.1 µM]	6%&6%	nt	nt	nt	38%[activator]	-6%
O=C(NN=C1CCCC1)c1ccc(O)cc1O	7%	nt	nt	nt	21%	nt	3%	-4%
Cc1ccc(NC2OC(C(O)CO)C(O)C2O)cc1[N+](=O)[O-] (stereo unspecified)	2%	5%	6%	-0.9%	28%	-7%	-10%	3%
COc1ccccc1-c1nnc(SCC(=O)N2CC(C)CC(C)C2)o1 (stereo unspecified)	9%	-4%	8%	0.8%	0%	-6%	-16%	-9%
COc1ccc(Cc2nc3ccc(C(=O)N(C)C(C)c4ccon4)cc3o2)cc1 (stereo unspecified)	-19%	?	?	nt	11%	nt	-8%	4%
CS(=O)(=O)Nc1ccc2c(c1)ncn2CCc1ccccc1	2%	nt	nt	nt	9%	nt	-20%	0%
CSc1ncccc1C(=O)Nc1nccs1	-3%	0%	11%	nt	-4%	nt	-8%	-5%
COc1ccc(C(=O)NC(CO)c2nnc(SCc3ccc(Cl)c(Cl)c3)n2C)cc1 (stereo unspecified)	4%	1%	-1%	-0.5%	16%	?	nt	-4%
O=C(Cn1cc(S(=O)(=O)c2ccccc2)c(=O)c2cc3c(cc21)OCO3)Nc1ccc(Cl)cc1	nt	-21%[46.1 µM]	-22%[46.1 µM]	-6.6%	nt	?	6%	nt
COc1ccc(Cc2c(O)[nH]c(=O)[nH]c2=O)c(OC)c1	0%	0%	9%	nt	2%	nt	-2%	1%
OCCNCc1cc(Br)ccc1OCc1ccccc1Cl	-8%	-17%	?	-6.8%	-3%	-9%	?	-5%
Cc1cc(NC(=O)c2cccs2)n(-c2ccccc2)n1	-2%	-12%	?	3.2%	-3%	8%	5%	-2%
O=C(COC(=O)c1cc(Cl)ccc1O)NCC1CCCO1 (stereo unspecified)	4%	10%	-2%[46.1 µM]	nt	nt	nt	12%	-3%
O=C(Nc1ccnn1C1CCN(Cc2cccc(F)c2F)CC1)C1CCCC1	-4%	13%	?	nt	10%	nt	0%	4%
Cc1[nH]c2ccccc2c1C(=O)COC(=O)CCS(=O)(=O)c1ccccc1Cl	0%	-1%	?	-9.1%	-16%	-8%	-15%	5%
COc1ccc(NC(=O)Nc2nnc(N3CCC(C)CC3)s2)cc1OC	-6%	7%	-7%	0.6%	-14%	-1%	-4%	7%

The list goes on:
SMILES	RE007 growth inh	LASV entry inh	Marburg entry inh	Cruzain Triton	NS1 function inh	Cruzain inh noDet	2A StopGo	SARS PLpro yeast
Cc1cccc(OP(=O)(Oc2ccccc2)OC(c2ccccc2)C(F)(F)F)c1 (stereo unspecified)	0%	-8%	?	-6.4%	-32%	14%	-23%	-53%
Fc1ccccc1NC(=S)NNc1ncc(C(F)(F)F)cc1Cl	18%	?	7.9µM*	3.7%	-89%	0%	?	2%
O=S(=O)(c1cccs1)N1CN(Cc2ccco2)c2nc3ccccc3nc21	13%	-1%	-8%[46.1 µM]	nt	-6%	nt	8%	0%
COc1cccc(CN(Cc2ccco2)S(=O)(=O)c2ccc(S(=O)(=O)NCc3ccccc3)cc2)c1OC	2%	?	-23%	-0.5%	23%	-18%	20%	9%
COc1ccc(Cc2nc(-c3cccc(C)c3)no2)cc1	-16%	?	-2%[46.1 µM]	-2.3%	1%	?	17%	?
